VDR inh – Inhibitors of the vitamin D receptor (VDR): qHTS | Vitamin D3 receptor (Homo sapiens), P11473 | VDR-SRC2-3 peptide fluorescence polarization, 2 h | Potency, µM, without a hit: max response, negative = inhibition, usual class: inhibitors | 400,000 compounds, 0.93% hits; active = well fitted inhibition curve with a large enough effect; inconclusive = small, poorly fitted or top-dose-only effect, or another doubt; inactive = no such curve, though single readings can be large or run the other way; also: series mostly up to about 120 µM
Target sequence (P11473 whole entry, looked up): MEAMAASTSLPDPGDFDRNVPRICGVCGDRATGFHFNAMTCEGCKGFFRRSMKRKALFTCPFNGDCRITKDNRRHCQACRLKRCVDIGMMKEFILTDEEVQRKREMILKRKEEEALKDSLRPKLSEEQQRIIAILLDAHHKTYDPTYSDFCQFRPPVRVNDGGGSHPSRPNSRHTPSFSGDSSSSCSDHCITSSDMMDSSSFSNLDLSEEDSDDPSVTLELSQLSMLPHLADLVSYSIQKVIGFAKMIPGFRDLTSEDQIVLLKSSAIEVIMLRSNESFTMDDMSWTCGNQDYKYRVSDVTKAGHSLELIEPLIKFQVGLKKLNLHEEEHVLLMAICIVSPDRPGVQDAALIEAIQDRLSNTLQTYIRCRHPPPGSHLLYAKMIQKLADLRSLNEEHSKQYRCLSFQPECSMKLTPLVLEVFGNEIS
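After 23 nl compound addition and a short centrifugation, plates sat for 2 hours at ambient temperature; polarization of fluorescence then indicated loss of VDR binding to peptide SRC2-3.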
Starred values were filed as active, the others as inactive; ? = inconclusive; & = joins results of further samples. % is scaled to controls: 0 for no effect and ±100 for the full control effect; potency is read from the fitted curve at half-maximal effect.

VDR inh | molecule
1.0% | CCn1c(=O)cc(OCC(=O)N2CCN(c3cccc(C(F)(F)F)c3)CC2)c2ccccc21
-4.2% | CC(=O)c1ccc(S(=O)(=O)N2CCCc3ccccc32)cc1
-2.0% | Cc1ccc2c(COC(=O)C3CC(=O)N(c4ccc5c(c4)OCCO5)C3)cc(=O)oc2c1 (configuration not stated)
0.1% | Cc1ccc(C)c(NC(=O)CSc2cn(CC(=O)N3CCCCC3)c3ccccc23)c1
-7.8% | Nc1nnc(-c2ccc(Cl)c(Cl)c2)s1
-7.0% | C=CC(C)=C[C@@]1(C)SC(=O)C(C)=C1O
-17.4% | CN(C)c1nc(SCC(=O)Nc2ccc(Cl)c(Cl)c2)nc(N2CCOCC2)n1
9.4% | CCn1cc2nc(SCC(=O)Nc3ccc(C)cc3)n(Cc3ccc(C)cc3)c(=O)c2n1
? | N#Cc1c2c(c(Nc3ccccc3)n3c1nc1ccccc13)CCC2
11.8% | COc1ccc(CSc2nnc(C)n2N)cc1Br
17.8% | Cc1ccc2[nH]c(O)c(N=NC(=O)C(C)n3cnc4ccccc4c3=O)c2c1 (configuration not stated)
8.4% | O=C(NCCCCCc1nc2ccccc2[nH]1)c1ccccc1Cl
24.9% | c1ccc2c3c(c(CN4CCCC4)cc2c1)COC3
-6.5% | O=C(O)c1ccc(Cn2cnc3c(=S)nc[nH]c32)cc1
9.0% | Cc1cc(N2CCCC2)ccc1NC(=O)CN1C(=O)NC(C)(c2ccccc2)C1=O (configuration not stated)
-2.7% | COc1ccc(-c2ccc(S(=O)(=O)NCC3CCCO3)cc2)cc1 (configuration not stated)
-18.8% | O=C(c1cccs1)N1CCN(c2nc3ccc([N+](=O)[O-])cc3s2)CC1
10.8% | COc1ccc(C(=O)Nc2ncc3c(n2)CC(c2ccco2)CC3=O)cc1 (configuration not stated)
-11.8% | O=C(Nc1ccc(Cl)c(Cl)c1)Nc1ccccc1C(=O)O
6.4% | CCc1ccc(CN(C)CC(=O)Nc2sccc2C#N)cc1
-9.0% | NC(=O)c1ccccc1NC(=O)/C=C/c1ccccc1
-29.0% | CC(C)(C)NC(=O)Nc1ccc(Cn2cc(C(F)(F)F)ccc2=O)cc1
-18.4% | CC(C)c1ccc2oc(-c3ccc(NC(=O)c4ncn[nH]4)cc3)nc2c1
-1.9% | COC(=O)c1ccc(CSc2nnc(Nc3ccccc3OC)s2)o1
-8.6% | Cc1ccc(-n2ncc3c(=O)n(CC(N)=O)cnc32)cc1C
14.9% | CCOC(=O)N1CCN(CC(O)COc2ccccc2C(C)CC)CC1 (configuration not stated)
3.9% | Cc1ccc(NC(=O)CSCn2nnc3c(=O)[nH]c(Cc4ccc(F)cc4)nc32)c(C)c1
-1.9% | CC(OC(=O)c1cc(S(=O)(=O)N2CCOCC2)ccc1F)C(=O)NC1CCCC1 (configuration not stated)
16.1% | Cc1ccsc1C(=O)OCC(=O)Nc1ccc(Cl)cn1
-25.1% | COc1ccc(N(C)C(=S)Nc2ccc3nc(C)c(C)nc3c2)cc1

As a short view, 3 of the compounds above.
VDR inh | molecule
-1.9% | CC(OC(=O)c1cc(S(=O)(=O)N2CCOCC2)ccc1F)C(=O)NC1CCCC1 (configuration not stated)
16.1% | Cc1ccsc1C(=O)OCC(=O)Nc1ccc(Cl)cn1
-25.1% | COc1ccc(N(C)C(=S)Nc2ccc3nc(C)c(C)nc3c2)cc1

Following part
VDR inh | molecule
-1.3% | C#CCOc1ccc(C(=O)N(C)c2ccccc2I)cc1
-9.4% | CN(C)S(=O)(=O)c1ccc(C(=O)NC(=O)CSc2ccccc2)cc1
7.8% | S=c1[nH]nc(-c2cccs2)n1/N=C/c1cn(-c2ccccc2)nc1-c1ccc(Cl)cc1
16.2% | Cc1ccccc1OCc1ccc(-c2nc(C#N)c(N3CCN(c4ccccc4)CC3)o2)o1
-22.5% | CC(C)(C)c1ccc(CS(=O)CC(O)CO)cc1 (configuration not stated)
? | CCc1cc(C(c2ccc(OC)c(OC)c2)N2CCOCC2)c(NC(=O)c2ccccc2)s1 (configuration not stated)
8.7%&6.8% | CSc1cccc(NC(=O)Cn2cnc(S(=O)(=O)N3CCCC3)c2)c1
3.3% | COc1ccc(/C=N/n2cnc3c([nH]c4ccc(Br)cc43)c2=O)cc1CN1CCOCC1
-13.4% | O=C(Cc1ccccc1F)OCC(=O)N1CCN(C(=O)c2ccco2)CC1
19.6% | Nc1ccc2nc(CCCCCCc3nc4ccc(N)cc4[nH]3)[nH]c2c1
-6.2% | COc1cc(C(=O)OCC(=O)Nc2ccc(SC(F)F)cc2)cc(OC)c1OC
-2.1% | COc1ccc(CNC(=O)COC(=O)Cc2ccsc2)cc1
1.7% | CC(C)Sc1nnc(CNC(=O)C23CC4CC(CC(C4)C2)C3)n1C1CCCCC1
-2.4% | O=C(Nc1ccc(N2CCOCC2)c(Cl)c1)c1ccc(-n2cnnc2)cc1
-11.8% | COc1ccc(N2CCN(C(=O)CN(c3cccc(Br)c3)S(C)(=O)=O)CC2)cc1
-3.9% | OCC1OC(n2cnc3c(N4CCCCC4)ncnc32)C(O)C1O (configuration not stated)
-16.2% | N#Cc1cc(N)ccc1Sc1ccccc1
13.1% | CCCCN1C(=O)NC(NC(=O)C2CC2)(C(F)(F)F)C1=O (configuration not stated)
4.1% | CCCSc1ccccc1C(=O)N1CCN(C(=O)c2ccco2)CC1
26.1% | COc1ccc(C(=O)Nc2ccc(NC(=O)c3cc(OC)c(OC)c(OC)c3)cn2)cc1
5.4% | CCCc1ccc(S(=O)(=O)NCCc2ccncc2)cc1
15.3% | N#Cc1cc2cc3c(cc2nc1NCCNC(=S)NCCCN1CCOCC1)OCO3
10.8% | O=C(COC(=O)c1ccc(S(=O)(=O)C(F)F)cc1)Nc1ccccc1C(=O)NC1CC1
-0.9% | O=C(CN1C(=O)COc2ccc(S(=O)(=O)N3CCCCCC3)cc21)Nc1cccc(Cl)c1
-15.4% | CCn1c(CCC(=O)Nc2cc(F)ccc2C)nc2cc(S(=O)(=O)N(C)C)ccc21
5.9% | CCOC(=O)C(=CNc1cc(C)ccc1-n1cccc1)C(=O)OCC
3.5% | CCCc1cc(C(F)(F)F)c(C#N)c(=O)[nH]1
-5.5% | Cc1cc(C(=O)Cn2nc(C(=O)O)c3ccccc3c2=O)c(C)n1C1CC1
2.3% | Fc1ccc(CSc2nncn2NC/C=C/c2ccccc2)cc1
-1.6% | COc1ccc(C(O)P(=O)(OCC(C)C)c2ccc(N(C)C)cc2)c(OC)c1 (configuration not stated)

(more compounds)
VDR inh | molecule
-0.2% | N#C/C(=C\c1ccc(O)c(O)c1)C(=O)N1CCc2ccccc21
22.5% | COc1cccc(OCCn2cc(C=O)c3ccccc32)c1
-2.4% | Cn1cccc1CNC(=S)Nc1ccccc1Cl
-16.1% | Cc1ccccc1OCCC(=O)OCC(=O)NC1CCCCC1
4.5% | O=C(Nc1ccc([N+](=O)[O-])c(NC(=O)c2cccnc2)c1)c1cccnc1
-3.4% | Cc1ccc(S(=O)(=O)Nc2ccc3c(c2)CCC3)cc1C
5.2% | COc1ccc(/C=N/NC(=O)c2cccc(OC(F)(F)C(F)F)c2)cc1O
-13.1% | O=[N+]([O-])c1cc(Cl)cc(/C=N/NC(=S)Nc2ccc(S(=O)(=O)N3CCOCC3)cc2)c1O
16.0% | CCOC(=O)c1c(C)oc2nc(C)nc(NCCCN3CCN(c4cccc(C)c4)C(C)C3)c12 (configuration not stated)
-16.1% | COC(=O)c1ccc(NS(=O)(=O)c2ccc(-c3cc(C)no3)s2)cc1
4.0% | CCCCn1c(N)c(N(CC)C(=O)c2ccc(-c3ccc(Cl)cc3)o2)c(=O)[nH]c1=O
-3.2% | O=C(O)/C=C/C(=O)Nc1ccc(-n2ccc(C(F)(F)F)n2)cc1
3.4% | CC(C)NC(=O)c1ccc2c(c1)nc1n2CCCCC1
17.2% | Cc1cccc(Nc2ccc(C(=O)N3CCOCC3)cn2)c1
3.2% | COc1cc(NS(=O)(=O)c2ccc(NC(C)=O)cc2)nc(OC)n1
-17.6% | C=C(C)CC1Nc2ccccc2NC1CC(=C)C (configuration not stated)
0.7% | COc1ccc(CCNC(=O)Cn2c(=O)n(-c3ccccc3)c(=O)c3c(C)c(C)sc32)cc1OC
10.7% | O=C(CSc1ccc2nnc(-c3cccnc3)n2n1)NCc1ccc2c(c1)OCO2
-7.3% | COc1c(-c2ccc([N+](=O)[O-])cc2[N+](=O)[O-])c(=O)n(C)c(=O)n1C
-21.0% | CCCNC(=O)c1ccc2c(=O)c(O)c(-c3ccsc3)[nH]c2c1
35.5µM* | O=[N+]([O-])c1cc(S(=O)(=O)C(F)(F)F)ccc1Sc1nc2ccccc2s1
-19.3% | CCN(CC)c1cc(C)c2cc(NC(=O)/C=C/c3ccccc3Cl)ccc2n1
-13.8% | Cc1ccc(NS(=O)(=O)c2ccc3c(c2)oc(=O)n3C)cc1C
-4.9% | COc1ccc(Cl)cc1NC(=O)CNCC(c1ccccc1)N(C)C (configuration not stated)
28.2µM* | N#CC1=C2SCN(c3ccccc3)CN2C(=O)CC1c1ccccc1Cl (configuration not stated)
-14.9% | Cn1cccc1C(=O)OCC(=O)NCCCc1ccccc1
50.1µM* | CN(Cc1ccco1)c1ncncc1-c1ccccc1C(F)(F)F
-11.3% | CC(C)OC(=O)c1cc2ccccc2[nH]1
-10.3% | Cc1ccc(S(=O)(=O)NCCC(=O)N(C)Cc2cccs2)cc1
-15.3% | CCc1cc(C(c2cccc(OC)c2)N2CCOCC2)c(NC(=O)c2ccccc2)s1 (configuration not stated)

(next part)
VDR inh | molecule
11.6% | O=C(Nc1ccccc1)Nc1cnccn1
5.9% | COC(=O)c1ccc(NC(=O)CCc2c(C)nc3ncnn3c2C)cc1
-2.3% | Cc1nnc(NC(=O)CSc2nnc(Cc3cccn3C)n2-c2cccc(C(F)(F)F)c2)s1
? | Cc1cc(C)cc(Oc2nc3c(C)cccn3c(=O)c2/C=C(\C#N)c2nc3ccccc3s2)c1
-3.3% | Cc1ccc(-n2c(SCC(=O)O)nc3c(sc(=S)n3-c3ccc(C)c(C)c3)c2=O)cc1
10.9% | CC(=O)c1cccc(Nc2cc(C)nc3ccccc23)c1
2.3% | C#C[C@]1(O)CC[C@H]2[C@H]3CCC4=Cc5oncc5C[C@]4(C)[C@@H]3CC[C@]21C
15.3% | O=C(COC(=O)c1cc[n+]([O-])cc1)Nc1ccccc1Cl
-3.4% | Cc1ccc(C(=O)NC(=S)Nc2ccc(NC(=O)c3cccs3)cc2)cc1[N+](=O)[O-]
1.7% | COCCNc1nnc(SC(C)C(=O)Nc2c(C)n(C)n(-c3ccccc3)c2=O)s1 (configuration not stated)
5.6% | Cc1ccc(NC(=O)CSCCc2ccccn2)nc1
7.5% | Cc1ccccc1NC(=O)CN1C(=O)COc2ccc(S(=O)(=O)N3CCCC3)cc21
0.7% | N#Cc1ccccc1S(=O)(=O)N1CCN(C(=O)c2cc(=O)[nH]c3ccccc23)CC1
-15.7% | CN1C(=O)/C(=C\c2ccncc2)SC1=Nc1ccccc1
-1.9% | O=C(OCC(=O)N1CCc2ccccc21)c1n[nH]c(=O)c2ccccc12
0.7% | COC(=O)C#CC(=O)OC
11.8% | CCOc1cc(/C=N/OC(C)=O)ccc1OCc1ccccc1
-19.3% | Cc1ccc(-n2c(-c3ccccc3)n[nH]c2=S)cc1
4.6% | CC(NC(=O)CSc1nnc(CC(=O)Nc2ccc(Cl)c(Cl)c2)n1C)c1ccccc1 (configuration not stated)
-14.4% | CCC(=O)Nc1ccc2nc(C)n(Cc3ccccc3Cl)c(=O)c2c1
-18.5% | CCN(CCn1cccn1)C(=O)CC1C(=O)NCCN1Cc1ccc(F)c(F)c1 (configuration not stated)
13.3% | CCOc1cccc(=O)c2c(C)n(C)c(C)c12
0.9% | CCC(C)(C)NC(=O)Cn1c(=O)oc2cc(S(=O)(=O)N3CC(C)CC(C)C3)ccc21 (configuration not stated)
-12.0% | CCCn1c(=O)c2ccccc2n2c(SCC(=O)c3ccc(CC)cc3)nnc12
-4.1% | Cc1cccc(Cn2c(SCc3ccc(C(=O)NC4CCCC4)cc3)nc3cccnc32)c1
-0.7% | COc1cc2[nH]c(=O)n(Cc3ccc(C(=O)NCc4ccc(C)cc4)cc3)c(=O)c2cc1OC
-1.3% | Cc1cccc(C(=O)N2CCN(c3ccc([N+](=O)[O-])c(N4CCOCC4)c3)CC2)c1
-0.5% | O=C(NCc1ccccc1)c1cccn1-c1nnc(N2CCCCC2)s1
2.8% | COc1ccc(NC(=O)Nc2cc(C)ccc2OC)cc1
2.0% | C=CCNC(=O)/C(=C\C=C\c1ccccc1)NC(=O)c1ccc(OCCCC)cc1

Some of these compounds in order of length of the SMILES, rising:
VDR inh | molecule
-17.6% | C=C(C)CC1Nc2ccccc2NC1CC(=C)C (configuration not stated)
11.8% | CCOc1cc(/C=N/OC(C)=O)ccc1OCc1ccccc1
28.2µM* | N#CC1=C2SCN(c3ccccc3)CN2C(=O)CC1c1ccccc1Cl (configuration not stated)
-18.4% | CC(C)c1ccc2oc(-c3ccc(NC(=O)c4ncn[nH]4)cc3)nc2c1
4.5% | O=C(Nc1ccc([N+](=O)[O-])c(NC(=O)c2cccnc2)c1)c1cccnc1
7.8% | S=c1[nH]nc(-c2cccs2)n1/N=C/c1cn(-c2ccccc2)nc1-c1ccc(Cl)cc1

New compounds follow.
VDR inh | molecule
18.6% | CC(C)C(NC(=O)OCc1ccccc1)C(=O)NC(Cc1ccc(O)cc1)C(=O)O (configuration not stated)
-0.4% | Cc1ccc(S(=O)(=O)N(C)c2ccccc2)cc1
-13.4% | Clc1ccc(CSc2nnc(-c3ccccn3)n2Cc2ccco2)c(Cl)c1
-4.5% | CC(C)CNC(=O)CC(c1ccccc1)c1c(O)ccc2ccccc12 (configuration not stated)
22.5% | CC(=O)Nc1ccc(OCc2cc(=O)n3ccccc3n2)cc1
5.6% | CCOc1ccc(N(CC)S(=O)(=O)N2CCCC(C(=O)NCc3ccccc3OCC)C2)cc1 (configuration not stated)

High-throughput results as filed in PubChem BioAssay.

These rows are one share of the data; the hit share may differ from the screen's.
